Env fusion inh: inhibitors of HIV Env-mediated cell fusion; HeLa-JRFL Env/CEM21 cell fusion, luciferase; inhibition, % at 12.3 µM; 1.1% of 360,000 active; AID 651610;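 active = mean replicate inhibition score of at least 50 and every replicate individually at or above 50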;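 also: 0% = plate neutral controls and 100% = maraviroc near 300 nM; one replicate is shown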
Yeast UUG start: yeast start codon fidelity modulation; S. cerevisiae UUG-firefly luciferase reporter, luminescence/redox ratio; activity score, % at 18.7 µM; 0.13% of 350,000 active;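 active = replicate mean at a twofold rise or more, about +100% in these data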;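 also: firefly luciferase made from a UUG start codon reports start codon fidelity; reporter light over untreated wells divided by growth signal over untreated wells; some hits fall short of that in this replicate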
Active calls of the source: *; & = joins results of further samples; [ ] = dose if it differs, or a comment. Some of the compounds tested (hit frequency here may not be typical).

structure | Env fusion inh | Yeast UUG start
CO[C@@H]1CN(C)C(=O)c2ccc(NC(=O)NC(C)C)cc2OC[C@@H](C)N(C(=O)NC(C)C)C[C@H]1C | -20.1[16.7 µM] | -0.4
CN1C(=O)c2cc(NC(=O)c3cccs3)ccc2OC[C@H]2O[C@H](CC(=O)NCC(F)(F)F)CC[C@@H]21 | 8.1[16.7 µM] | 1.5
O=C(N[C@@H]1CC[C@@H](CCNC(=O)C2CCC2)O[C@@H]1CO)c1ccccn1 | -2.2[16.7 µM] | 0.8
COc1cccc(-c2cnc3c(c2)C(=O)N([C@H](C)CO)C[C@H](C)[C@H](CN(C)S(=O)(=O)c2cn(C)cn2)O3)c1 | -1.3[16.7 µM] | 2.0
Cc1noc(C)c1NC(=O)N(C)C[C@H]1OCCCC[C@H](C)Oc2ccc(NC(=O)NC3CCCCC3)cc2C(=O)N([C@@H](C)CO)C[C@@H]1C | -15.9[16.7 µM] | -4.0
C[C@H](CO)N1C[C@H](C)[C@H](CN(C)S(=O)(=O)c2ccc(Cl)cc2)Oc2ccc(NS(=O)(=O)c3ccc(Cl)cc3)cc2C1=O | 27.2[16.7 µM] | 7.4
C[C@@H]1CN([C@@H](C)CO)C(=O)c2cc(NC(=O)Cc3ccccc3)ccc2O[C@@H](C)CCCCO[C@H]1CN(C)C | 1.1[16.7 µM] | 8.3
COc1ccc(-c2cnc3c(c2)C(=O)N([C@H](C)CO)C[C@@H](C)[C@@H](CN(C)C(=O)Cc2ccncc2)O3)cc1 | 20.6[16.7 µM] | -1.9
C[C@@H]1CN([C@@H](C)CO)C(=O)Cc2cc(NS(=O)(=O)c3ccc(F)cc3)ccc2O[C@H]1CN(C)Cc1ccncc1 | -24.4[16.7 µM] | -1.5
COc1cccc(S(=O)(=O)N2C[C@H](O)COC[C@@H]3O[C@@H](CC(=O)N4CCN(c5ccccc5)CC4)CC[C@H]32)c1 | 4.7[16.7 µM] | -4.3
COc1ccc(S(=O)(=O)Nc2ccc3c(c2)C(=O)N([C@H](C)CO)C[C@@H](C)[C@@H](CN(C)C(=O)NC2CCCCC2)OCCCC[C@H](C)O3)cc1 | -106.2[16.7 µM] | 2.1
C[C@@H]1CCCCO[C@H](CN(C)Cc2ccncc2)[C@H](C)CN([C@H](C)CO)C(=O)c2cc(NC(=O)CCCN(C)C)ccc2O1 | -6.7[16.7 µM] | -20.7
O=C(C[C@@H]1C=C[C@H](NC(=O)C2CC2)[C@H](CO)O1)Nc1nccs1 | 10.7[16.7 µM] | -11.9
CCC(=O)N(C)C[C@H]1Oc2ncc(/C=C/c3ccccc3)cc2C(=O)N([C@H](C)CO)C[C@H]1C | -6.0[16.7 µM] | 4.5
CN(C)CC(=O)N[C@@H]1CC[C@@H](CCn2cc(CN(C)C)nn2)O[C@H]1CO | 2.3[16.7 µM] | -15.3
Cn1cnc(S(=O)(=O)N[C@H]2CC[C@H](CC(=O)Nc3ccccc3)O[C@@H]2CO)c1 | 2.4[16.7 µM] | -6.4
COc1ccccc1NC(=O)N1C[C@H](O)COC[C@H]2O[C@H](CC(=O)NCCc3ccncc3)CC[C@@H]21 | -11.2[16.7 µM] | -2.1
CC(C)c1cn(CC[C@H]2CC[C@H](NC(=O)c3cccc(F)c3)[C@H](CO)O2)nn1 | 5.8[16.7 µM] | -4.1
C[C@@H]1CCCCO[C@H](CN(C)C(=O)c2ccccc2)[C@@H](C)CN([C@H](C)CO)C(=O)c2cc(NS(=O)(=O)c3cn(C)cn3)ccc2O1 | 25.3[16.7 µM] | -5.9
COc1ccc(C#Cc2cnc3c(c2)C(=O)N([C@H](C)CO)C[C@@H](C)[C@H](CN(C)CC2CCOCC2)O3)cc1 | -0.1[16.7 µM] | -3.2
CO[C@@H]1CN(C)C(=O)c2ccc(NC(=O)Cc3ccccc3)cc2OC[C@H](C)N(CC2CC2)C[C@H]1C | -11.0[16.7 µM] | -7.5
C[C@@H]1CCCCO[C@@H](CN(C)Cc2ccc(Cl)c(Cl)c2)[C@@H](C)CN([C@H](C)CO)C(=O)c2cc(NC(=O)Nc3ccc(F)cc3)ccc2O1 | -25.7[16.7 µM] | -5.0
C[C@@H]1CN([C@H](C)CO)C(=O)c2cc(C3=CCCCC3)cnc2O[C@@H]1CN(C)C(=O)c1ccc(F)cc1 | -4.5[16.7 µM] | 9.1
O=C(C[C@@H]1C=C[C@@H](NC(=O)c2cccc(F)c2)[C@H](CO)O1)NCCN1CCCC1 | -0.6[16.7 µM] | 12.6
C[C@H](CO)N1C[C@H](C)[C@H](CN(C)Cc2ccc(F)cc2)Oc2ncc(Br)cc2C1=O | -1.1 | -7.1
C[C@@H]1CN([C@H](C)CO)C(=O)c2cc(C3=CCCCC3)cnc2O[C@@H]1CN(C)C(=O)c1ccccn1 | -3.2[16.7 µM] | -10.1
Cc1noc(C)c1S(=O)(=O)Nc1ccc2c(c1)C(=O)N([C@@H](C)CO)C[C@@H](C)[C@H](CN(C)S(=O)(=O)c1c(C)noc1C)OCCCC[C@@H](C)O2 | -10.4[16.7 µM] | 14.8
C[C@@H]1CN([C@@H](C)CO)C(=O)c2cc(C#Cc3ccccc3F)cnc2O[C@@H]1CN(C)C(=O)C1CC1 | -0.1[16.7 µM] | -4.2
C[C@H](CO)N1C[C@H](C)[C@H](CN(C)S(=O)(=O)c2ccccc2F)Oc2ncc(C#Cc3ccccc3F)cc2C1=O | 31.8[16.7 µM] | -16.5&-8.2
C/C=C/c1ccc2c(c1)O[C@@H](CN(C)Cc1ccccn1)[C@H](C)CN([C@H](C)CO)S2(=O)=O | 14.9[16.7 µM] | -12.9

Shown field by field: entries from further up
> C[C@H](CO)N1C[C@H](C)[C@H](CN(C)Cc2ccc(F)cc2)Oc2ncc(Br)cc2C1=O
  Env fusion inh = -1.1; Yeast UUG start = -7.1
> C[C@@H]1CN([C@H](C)CO)C(=O)c2cc(C3=CCCCC3)cnc2O[C@@H]1CN(C)C(=O)c1ccccn1
  Env fusion inh = -3.2[16.7 µM]; Yeast UUG start = -10.1

New compounds follow
structure | Env fusion inh | Yeast UUG start
CCCC#Cc1cnc2c(c1)C(=O)N([C@H](C)CO)C[C@@H](C)[C@H](CN(C)S(=O)(=O)c1ccccc1)O2 | 10.6[16.7 µM] | 2.9
CO[C@@H]1CN(C)C(=O)c2ccc(NC(=O)c3ccccc3)cc2OC[C@@H](C)N(CC2CC2)C[C@H]1C | -10.5[16.7 µM] | 0.4
C[C@@H]1CN([C@H](C)CO)C(=O)c2cc(NS(C)(=O)=O)ccc2O[C@@H]1CN(C)Cc1ccc(Oc2ccccc2)cc1 | 17.7[16.7 µM] | 6.3
C[C@@H]1CN([C@H](C)CO)S(=O)(=O)c2ccc(C3=CCCC3)cc2O[C@H]1CN(C)S(=O)(=O)c1ccc(F)cc1 | 17.8[16.7 µM] | -15.8
O=C(N[C@@H]1CC[C@@H](CCNS(=O)(=O)c2ccc(F)cc2)O[C@@H]1CO)C1CCOCC1 | 20.0[16.7 µM] | -5.2
C[C@@H]1CN([C@@H](C)CO)S(=O)(=O)c2ccc(C#Cc3ccc(F)cc3)cc2O[C@H]1CN(C)S(C)(=O)=O | 19.7[16.7 µM] | 8.4
COc1cccc(CNC(=O)C[C@H]2C=C[C@@H](NC(=O)C3CCOCC3)[C@@H](CO)O2)c1 | -5.3[16.7 µM] | -2.4
C[C@@H]1CN([C@H](C)CO)C(=O)Cc2cc(NS(=O)(=O)c3cccs3)ccc2O[C@@H]1CN(C)C(=O)Nc1ccc(C(F)(F)F)cc1 | 8.6[16.7 µM] | -21.1
C[C@@H]1CN([C@H](C)CO)C(=O)c2cc(-c3cccc(C(=O)N(C)C)c3)cnc2O[C@H]1CN(C)S(=O)(=O)c1cccc(F)c1 | 23.9[16.7 µM] | -1.8
CO[C@H]1CN(C)C(=O)c2cc(NS(C)(=O)=O)ccc2OC[C@@H](C)N(C(=O)C2CCC2)C[C@@H]1C | -0.9[16.7 µM] | -11.2
O=C(N[C@@H]1CC[C@@H](CC(=O)N2CCCCC2)O[C@H]1CO)c1ccc2c(c1)OCO2 | -2.1[16.7 µM] | -10.8
COc1ccc(NC(=O)Nc2ccc3c(c2)C(=O)N([C@H](C)CO)C[C@H](C)[C@@H](CN(C)Cc2ccc4c(c2)OCO4)OCCCC[C@H](C)O3)cc1 | 23.9[16.7 µM] | 16.5
CN(C)Cc1cn(CC[C@@H]2CC[C@@H](NC(=O)Nc3ccc4c(c3)OCO4)[C@@H](CO)O2)nn1 | -7.6[16.7 µM] | -11.9
O=C(C[C@H]1C=C[C@H](NC(=O)C2CCC2)[C@H](CO)O1)NC1CCCCC1 | 12.3[16.7 µM] | -9.5
O=C(C[C@H]1CC[C@@H](NC(=O)c2ccccc2)[C@@H](CO)O1)NCc1ccncn1 | -1.8[16.7 µM] | -8.4
C[C@H](CO)N1C[C@H](C)[C@@H](CN(C)Cc2ccccc2)OCCCC[C@H](C)Oc2ccc(NS(=O)(=O)c3ccccc3)cc2C1=O | -18.4[16.7 µM] | 11.3
O=C(C[C@@H]1CC[C@@H](NC(=O)c2ccncc2)[C@@H](CO)O1)NCC1CC1 | 4.0[16.7 µM] | -3.0
C[C@@H]1CN([C@H](C)CO)C(=O)c2cccc(NC(=O)c3cnccn3)c2O[C@@H]1CN(C)S(=O)(=O)c1cn(C)cn1 | 12.7[16.7 µM] | -14.4
C[C@@H]1CN([C@H](C)CO)S(=O)(=O)c2ccc(C#C[C@@H](C)O)cc2O[C@@H]1CN(C)Cc1ccccn1 | 2.3[16.7 µM] | 17.1
C[C@@H]1CN([C@H](C)CO)C(=O)c2cc(NC(=O)Nc3cccc4ccccc34)ccc2O[C@@H](C)CCCCO[C@@H]1CN(C)C(=O)NC1CCCCC1 | -33.7[16.7 µM] | 4.6
C[C@@H]1CN([C@@H](C)CO)C(=O)c2cc(C#Cc3ccc(F)cc3)cnc2O[C@@H]1CN(C)C | 6.3[16.7 µM] | 1.7
C[C@H](CO)N1C[C@H](C)[C@@H](CN(C)C(=O)CCCN(C)C)OCCCC[C@H](C)Oc2ccc(NC(=O)Cc3ccccc3)cc2C1=O | 10.1[16.7 µM] | 14.7
O=C(Nc1ccccc1F)N[C@H]1CC[C@H](CC(=O)N2CCCCC2)O[C@H]1CO | 13.5[16.7 µM] | -12.6
C[C@H](CO)N1C[C@H](C)[C@H](CN(C)CC2CCOCC2)Oc2ncc(-c3cccc(F)c3)cc2C1=O | 6.5[16.7 µM] | 16.1
COc1cccc(C#Cc2cnc3c(c2)C(=O)N([C@H](C)CO)C[C@H](C)[C@H](CN(C)C(C)=O)O3)c1 | 4.4[16.7 µM] | 13.1
O=C(C[C@@H]1C[C@H]2c3cc(NC(=O)NC4CCCC4)ccc3O[C@H]2[C@H](CO)O1)NC1CCCC1 | 21.7[16.7 µM] | 0.5
CNC[C@@H]1Oc2ccc(NS(=O)(=O)c3cccs3)cc2CC(=O)N([C@@H](C)CO)C[C@@H]1C | -5.1[16.7 µM] | -2.7
C[C@@H]1CN([C@@H](C)CO)C(=O)c2cc(-c3ccc(C#N)cc3)cnc2O[C@H]1CN(C)C(=O)Nc1ccc(F)cc1 | -9.5[16.7 µM] | 3.6
COc1ccccc1-c1ccc2c(c1)O[C@@H](CN(C)CC1CCOCC1)[C@@H](C)CN([C@H](C)CO)S2(=O)=O | -3.1[16.7 µM] | -7.4
CCCC(=O)Nc1ccc2c(c1)C(=O)N(C)[C@H]1CC[C@H](CC(=O)NCC(F)(F)F)O[C@H]1CO2 | 6.4[16.7 µM] | 3.0

New compounds follow.
Values run as follows: Env fusion inh	Yeast UUG start
- Cc1ccccc1-c1cnc2c(c1)C(=O)N([C@@H](C)CO)C[C@H](C)[C@@H](CN(C)CC1CCOCC1)O2
    -1.3[16.7 µM]	-7.5
- Cc1ccc(S(=O)(=O)N(C)C[C@H]2Oc3ccc(NS(=O)(=O)c4ccc(Cl)cc4)cc3CC(=O)N([C@H](C)CO)C[C@H]2C)cc1
    -20.4[16.7 µM]	0.3
- O=C(C[C@H]1C[C@@H]2c3cc(NC(=O)C4CCC4)ccc3O[C@@H]2[C@H](CO)O1)NCC(F)(F)F
    -54.4[16.7 µM]	0.9
- CCC(=O)N[C@H]1C=C[C@@H](CC(=O)NCc2ccccc2F)O[C@H]1CO
    -1.1[16.7 µM]	-5.5
- COCC(=O)Nc1ccc2c(c1)[C@H]1C[C@H](CC(=O)NC3CCCCC3)O[C@@H](CO)[C@H]1O2
    7.1[16.7 µM]	-1.5
- C[C@H](CO)N1C[C@H](C)[C@H](CN(C)C(=O)Nc2ccccc2)Oc2ccc(NC(=O)C3CC3)cc2C1=O
    -11.9[16.7 µM]	-12.4
- COc1ccc(NC(=O)N[C@H]2CC[C@H](CC(=O)NC3CCCCC3)O[C@H]2CO)cc1
    6.5[16.7 µM]	16.3
- CCC(=O)Nc1ccc2c(c1)C(=O)N(C)[C@@H]1CC[C@@H](CC(=O)N3CCCCC3)O[C@H]1CO2
    -12.2[16.7 µM]	-6.4
- O=C(Nc1cccc(Cl)c1)N[C@@H]1CC[C@@H](CCNC(=O)C2CCCCC2)O[C@@H]1CO
    -20.3[16.7 µM]	-9.0
- O=C(Nc1ccccc1F)N[C@@H]1CC[C@H](CCNS(=O)(=O)c2ccc(F)cc2)O[C@@H]1CO
    -20.5[16.7 µM]	5.3
- Cc1noc(C)c1S(=O)(=O)Nc1ccc2c(c1)CC(=O)N([C@H](C)CO)C[C@@H](C)[C@@H](CN(C)Cc1ccncc1)O2
    9.7[16.7 µM]	-14.7
- COc1ccc(NC(=O)Nc2ccc3c(c2)C(=O)N([C@H](C)CO)C[C@H](C)[C@@H](CN(C)C(=O)Nc2c(C)noc2C)OCCCC[C@@H](C)O3)cc1
    14.6[16.7 µM]	-24.4
- CCCNC(=O)C[C@H]1CC[C@H]2[C@H](COc3ccc(NC(=O)Cc4cccs4)cc3C(=O)N2C)O1
    -6.6[16.7 µM]	5.9

From PubChem BioAssay
